Screening data deposited in PubChem BioAssay by National Center for Advancing Translational Sciences (NCATS).
Lassa entry inh – Lassa virus entry inhibition; Lassa virus pseudotype entry inhibition, cell reporter; control for the full effect not named in the record; 1.2% of 300,000 active; AID 540256; Potency, µM (highest dose often 37.9 µM), for the others: at the top dose activity change, negative = inhibition, most hits filed as inhibitors; active means well fitted inhibition curve with a large enough effect; inconclusive means small, poorly fitted or top-dose-only effect, or effect the other way; inactive means flat fitted curve, though single readings scatter; tested in HEK293 cells; further: on the % scale 0 is the no-effect control and ±100 the full control effect; nearly all actives have a fitted effect of over 50% in size; luciferase read-out
2A StopGo – FMDV 2A StopGo reporter, luciferase signal | human cells with a luciferase reporter of 2A StopGo recoding; control for the full effect not named in the record | Potency, µM (titrated, usually from 57.9 µM), without a hit: at the highest dose signal change, negative = less light | 1.2% of 410,000 active | AID 1159524; active = well fitted falling curve with a large enough effect; inconclusive = small, poorly fitted or top-dose-only effect; inactive = no such curve, though single readings can be large or run the other way; tested in HEK293T cells; further: on the % scale 0 is the no-effect control and ±100 the full control effect; nearly all actives have a fitted effect of over 45% in size; luciferase light after 4 h
NS1 inh – influenza NS1 inhibition. S. cerevisiae slowed by influenza A NS1, growth recovery by OD600. Potency, µM (series often up to 46.1 µM), inactives show at the highest dose activity, positive = more growth. 0.4% of 270,000 active. AID 2326; active means well fitted rising curve with a large enough effect; inconclusive means small, poorly fitted or top-dose-only effect; inactive means no such curve, though single readings can be large or run the other way; further: nearly all actives have a fitted effect of over 50% in size
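Compounds were scored for reversing the slow growth caused by influenza A NS1 in S. cerevisiae, measured by optical density at 600 nm. Assay medium contained 2% galactose at pH 6.0; NS1-free yeast of the same strain were the positive control.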
Cruzain Triton – inhibitors of Trypanosoma cruzi cruzain with detergent | Potency, µM, inactives show max response, negative = inhibition, most hits filed as inhibitors | AID 1478 | P25779 | purified cruzain, Z-FR-AMC fluorescence, 0.01% Triton | 0.43% of 200,000 active;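 further: plate controls were neutral wells for no effect and buffer without enzyme for full effect; nearly all actives have a fitted effect of over 40% in size; top concentration of the series not given in the record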
Target sequence (P25779 123-467 limits assumed): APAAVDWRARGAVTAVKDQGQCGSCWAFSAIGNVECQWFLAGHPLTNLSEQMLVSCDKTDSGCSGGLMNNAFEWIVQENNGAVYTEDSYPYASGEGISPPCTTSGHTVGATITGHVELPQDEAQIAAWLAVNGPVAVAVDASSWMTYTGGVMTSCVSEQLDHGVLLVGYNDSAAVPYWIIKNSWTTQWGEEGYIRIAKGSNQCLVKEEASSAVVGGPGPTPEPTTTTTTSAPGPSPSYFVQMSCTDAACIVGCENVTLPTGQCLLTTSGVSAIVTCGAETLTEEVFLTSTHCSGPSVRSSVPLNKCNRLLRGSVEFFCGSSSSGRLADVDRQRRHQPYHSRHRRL
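Detergent-containing arm of a paired screen for aggregation-based inhibition: 0.01% Triton X-100 present. Cruzain at 1.5 nM cleaved 2 uM Z-FR-AMC at pH 5.5 with 5 mM DTT; AMC fluorescence gain over 60 s measured activity.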
RE007 growth inh – less growth of the S. pombe RE007 Vpr strain; S. pombe RE007 Vpr strain, BacTiter-Glo ATP luminescence, 24 h; control for the full effect not named in the record; Potency, µM (titrated, usually from 92.2 µM), for inactives: at the top dose activity change, negative = less growth; 0.21% of 360,000 active; AID 651644; active = well fitted falling curve with a large enough effect; inconclusive = small, poorly fitted or top-dose-only effect; inactive = no such curve, though single readings can be large or run the other way;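 further: on the % scale 0 is the no-effect control and ±100 the full control effect; nearly all actives have a fitted effect of over 50% in size; the assay follows cell death caused by Vpr and the record does not say whether a fall means rescue or toxicity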
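Fission yeast strain RE007, carrying one chromosomally integrated HIV-1 vpr copy, was seeded at OD 0.01 in PMG+AL medium with 23 nL pinned compound. After 24 h at 30 °C and 99% humidity, viability was read by BacTiter-Glo luminescence.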
Marburg entry inh – Marburg virus entry inhibition; Marburg virus pseudotyped entry inhibition, cell reporter; control for the full effect not named in the record; about a third of the inactives were read at about 46 µM; Potency, µM (top dose mostly 37.8 µM), for the others: at the top dose activity change, negative = inhibition, usual class: inhibitors; 1.8% of 300,000 active; AID 540276; active = well fitted inhibition curve with a large enough effect; inconclusive = small, poorly fitted or top-dose-only effect, or effect the other way; inactive = flat fitted curve, though single readings scatter; tested in HEK293 cells; about a fifth of its hits are not listed in these tables; further: on the % scale 0 is the no-effect control and ±100 the full control effect; luciferase read-out
SARS PLpro yeast – blocks SARS-CoV papain-like protease in a yeast assay; Potency, µM (doses to about 32.9 µM), for the others: top-dose activity, positive = growth rescue; 0.19% of 330,000 active; S. cerevisiae expressing SARS-CoV PLpro, growth rescue; control for the full effect not named in the record; active means well fitted rising curve with a large enough effect; inconclusive means small, poorly fitted or top-dose-only effect; inactive means no such curve, though single readings can be large or run the other way; further: 0% is about no effect; nearly all actives have a fitted effect of over 55% in size; growth read by luminescence after 48 h
Cruzain inh noDet – cruzain (T. cruzi) inhibition without detergent; P25779; purified cruzain, Z-FR-AMC fluorescence, no detergent; Potency, µM, for inactives: max response, negative = inhibition, hits mostly inhibitors; 2.3% of 200,000 active;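 further: plate controls were enzyme without inhibitor for no effect and buffer without enzyme for full effect; nearly all actives have a fitted effect of over 40% in size; top concentration of the series not given in the record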
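Purified cruzain at 1.5 nM, pre-incubated 15 min with compound at room temperature in 100 mM sodium acetate pH 5.5, 5 mM DTT, 0.00005% Triton X-100. Reaction started with 2 uM Z-FR-AMC; AMC fluorescence increase over 60 s gives rate.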
* = called active by the depositor; ? = inconclusive; . = no result given; & = joins results of further samples; [ ] = remark or other dose. Unless noted, the call rests on the fitted dose curve; in most records, active means well fitted curve in the direction sought with a large enough effect; inconclusive means small, poorly fitted or top-dose-only effect, or another doubt; inactive means no such curve, though single readings can be large; an effect the other way counts as inactive or inconclusive. Potency means the concentration at half of the fitted maximal effect. Outcome played no part in choosing rows; 4.7% or so of the library scored in one or more.

SMILES	Lassa entry inh	2A StopGo	NS1 inh	Cruzain Triton	RE007 growth inh	Marburg entry inh	SARS PLpro yeast	Cruzain inh noDet
O=C(CSc1nc2ncccc2o1)Nc1cccc(C(F)(F)F)c1	17.6%[46.1 µM]	-6.3%	.	-3.4%	.	.	.	-0.7%
O=C(Nc1cc2c3c(c1)CC(=O)N3CCC2)c1ccc(Br)o1	8.2%	21.5%	.	.	7.0%	14.3%	2.1%	.
Cc1ccc(S(=O)(=O)c2[nH]c(-c3ccccc3)nc2SCC(N)=O)cc1	7.0%[46.1 µM]	32.4%[activator]	.	-1.9%	.	-5.1%[46.1 µM]	.	-5.5%
CCOc1ccc(NC(=O)CSc2nnc(Cn3cnc4ccccc43)n2C)cc1	-0.7%	-17.0%	-0.7%	0.7%	11.2%	9.0%	5.4%	-0.6%
CCOCCCNC(=O)c1ccc2c(c1)ncn2-c1ccc(CC)cc1	.	9.8%	-9.6%	.	-3.7%	.	-4.4%	.
C=CCn1c(C(C)C)nc2ccccc21	-17.7%[46.1 µM]	-9.1%	.	.	-0.3%	-1.6%[46.1 µM]	2.4%	.
Cc1onc(-c2c(Cl)cccc2Cl)c1C(=O)NC(=S)Nc1sc2c(c1C(N)=O)CCC(C)C2 (stereo not given)	9.5%	-13.5%	0.0%	3.5%	4.8%	?	-3.9%	3.98µM*
COc1cccc(CNC(=O)CCS(=O)(=O)c2ccc3c(c2)oc(=O)n3C)c1	11.0%&-7.4%[46.1 µM]	0.2%&-19.4%	-2.1%	-1.7%	5.0%	0.3%&0.3%[46.1 µM]	-2.7%	-8.9%
Cc1ccc(C(=O)O)cc1NC(=O)Nc1cccc2ccccc12	.	4.8%	16.8%	.	-4.7%	.	-4.6%	.
CN1C(=O)C(C)(C)c2cc(S(=O)(=O)N3CCN(c4ccccc4F)CC3)ccc21	.	-20.7%	6.4%	.	-0.7%	.	-3.3%	.
COCCNc1cc(C)nc2c(-c3ccccc3OC)c(C)nn12	19.1%	-22.2%	-1.4%	-0.8%	4.7%	0.4%	-3.1%	2.3%
Cc1ccc(C2C(C(=O)c3cc4ccccc4o3)=C(O)C(=O)N2c2cc(C)on2)cc1 (stereo not given)	-6.0%	-14.7%	9.6%	.	-14.9%	-0.5%[46.1 µM]	-4.0%	.
O=C(Nc1nc(-c2ccccc2)cs1)c1cccc(S(=O)(=O)N2CCN(Cc3ccccc3)CC2)c1	?	-17.1%	26.5%	4.0%	-13.3%	?	-11.7%	?
CCCCc1ccc(NC(=O)CSCc2cc(=O)[nH][nH]2)cc1	11.4%	12.0%	17.8%	-10.5%	21.1%	-18.5%	4.8%	-1.9%
O=C(Nc1cc(Br)ccc1O)c1cc(-c2ccco2)on1	12.6%	55.0%[activator]	-16.8%	.	-0.1%	16.6%[46.1 µM]	-11.2%	.
CC(=O)N1N=C(c2ccc(C)cc2)OC1c1ccc(C)cc1 (stereo not given)	15.8%	16.8%	-11.4%	-6.5%	-11.4%	17.2%	-2.1%	1.4%
Cc1cn2c(=O)cc(COC(=O)c3ccc(NC(=O)c4ccccc4C)cc3)nc2s1	9.8%[46.1 µM]	-4.8%	.	-1.4%	.	.	.	0.7%
Cc1cccnc1NC(=O)Nc1cccc(Cl)c1	25.0%	63.6%[activator]	-5.7%	.	7.9%	?	0.5%	.
COC(=O)c1ccc(NC(=O)c2cccc(C)c2[N+](=O)[O-])cc1	.	57.9%[activator]	-3.5%	.	0.5%	.	-0.4%	.
Cc1ccc(Cl)cc1N1CCN(C(=O)c2cccn2-c2nnc(N3CCCCC3)s2)CC1	?	-18.4%	.	0.8%	.	.	.	-12.7%
CC(C)c1ccc(C(=O)NCc2ccc(Cl)cc2)cc1	-1.6%	34.9%[activator]	-4.1%	2.1%	8.2%	?	-2.6%	?
CNC(=S)N(CCc1c(C)[nH]c2ccc(Cl)cc12)Cc1cccnc1	2.4%	-22.6%	-5.0%	.	6.5%	?	-1.1%	.
Cc1ccc2c(c1)NC(=O)C(CC(=O)NCCCN1CCCCC1C)O2 (stereo not given)	.	-2.3%	3.4%	-0.6%	10.9%	.	-4.6%	-9.9%
COCCOc1ccc(C(F)(F)F)cc1NC(=O)COC(=O)C1=COCCO1	4.7%	-15.3%	.	.	15.3%	?	2.1%	.
O=C(CNCc1ccco1)Nc1cccc(S(=O)(=O)N2CCCCC2)c1	.	17.0%	-0.1%	.	0.6%	.	-0.1%	.
SMILES	Lassa entry inh	2A StopGo	NS1 inh	Cruzain Triton	RE007 growth inh	Marburg entry inh	SARS PLpro yeast	Cruzain inh noDet
Cn1c(N2CCN(C(=O)NC34CC5CC(CC(C5)C3)C4)CC2)nc2ccccc21	-1.5%	-17.4%	14.4%	2.3%	14.2%	10.4%	-1.4%	?
Cn1c(=O)n(CC(=O)NC2CCCCC2)c(=O)c2ccccc21	1.5%	-12.3%	-1.7%	2.2%	-1.1%	?	-4.0%	10.0%
Cc1ccc(C(C)NC(=O)c2c(-c3ccccc3)noc2C)cc1C (stereo not given)	.	?	-4.4%	.	7.1%	.	2.7%	.
O=C(NCCOc1ccc(F)cc1)C1CCN(S(=O)(=O)c2ccccc2)CC1	-10.0%	-11.0%	-9.0%	.	-4.5%	-3.8%	-2.1%	.
Clc1cccc(Sc2ccc(-c3ccccn3)s2)c1	.	11.7%	-9.0%	.	-1.7%	.	-2.1%	.
O=C(CC(O)c1ccncc1)c1ccccc1O (stereo not given)	?	-5.6%	.	.	?	?	.	.
Cc1ccc(NC(=O)N2CCN(Cc3nc4ccc(C)cc4o3)CC2)cc1	-5.4%[46.1 µM]	-27.7%	.	-3.5%	.	.	.	?
COc1cccc(C(=O)N2c3ccc(C)cc3C(C)(c3ccccc3)CC2(C)C)c1 (stereo not given)	-21.9%[46.1 µM]	?	.	-4.4%	.	.	.	?
NS(=O)(=O)c1ccc(NCc2ccccc2OCc2ccc(F)cc2)cc1	-29.3%	?	5.0%	-11.0%	25.2%	?	-11.6%	2.5%
Cc1ccc(NC(=O)C2CC(=O)N(c3ccc4c(c3)OCCO4)C2)cc1S(=O)(=O)N1CCCCCC1 (stereo not given)	?	?	.	.	13.5%	?	0.6%	.
CCOC(=O)C1CCN(C(=O)c2cc3cc4ccc(OC)cc4nc3o2)CC1	.	-27.3%	-13.8%	.	-0.7%	.	-1.6%	.
COCCn1c(SCC(=O)NC2CCCCC2)nc2c(c1=O)SCC2	26.4%[46.1 µM]	-18.5%	2.4%	.	11.0%	-0.7%[46.1 µM]	0.5%	.
O=[N+]([O-])c1ccc(CSc2nnc(-c3cccnc3)o2)cc1	.	-6.7%	-0.4%	.	-2.4%	.	-6.2%	.
COc1cccc(OCCCn2cc(/C=C3/C(=N)N4C=C(C)SC4=NC3=O)c3ccccc32)c1	?	-13.0%	4.4%	-2.3%	0.3%	?	6.4%	12.6µM*
CC1CC1c1ccc(/C=C(\C#N)C(=O)Nc2cccc(Cl)c2Cl)o1 (stereo not given)	-0.5%	41.3%[activator]	5.3%	-2.9%	6.4%	?	-8.9%	-6.7%
CC(C)C[C@H]1CN=C(Nc2ccccc2)N1CCC1CCCC1	.	-18.7%	-25.0%	.	-7.7%	.	0.4%	.
O=C(O)C(Cc1ccccc1)NS(=O)(=O)c1ccc(Cl)cc1 (stereo not given)	.	7.5%	7.0%	.	3.9%	.	-0.4%	.
N#CC(c1ccc(Cl)cc1)c1ccc2c(C(F)(F)F)cc(C(F)(F)F)nc2n1 (stereo not given)	2.82µM*	?	-168.5%	-3.1%	?	3.16µM*	-42.5%	-15.4%
CCOC(=O)c1cc2c(C)nn(-c3ccccc3)c2s1	-5.1%	18.2%	-7.0%	-2.1%	-5.3%	11.8%	-1.0%	6.2%
O=c1[nH]c(NCCO)nnc1Cc1ccccc1	.	-6.4%	-19.6%	.	1.1%	.	0.5%	.
O=C(c1ccc(CNS(=O)(=O)c2cccc(Cl)c2)cc1)N1CCCC1	-29.6%[46.1 µM]	-13.7%	2.1%	.	-1.5%	-8.2%[46.1 µM]	0.2%	.
Cc1nc(N2CCN(c3ccccn3)CC2)c2c(C)c(C(=O)Nc3ccccc3F)sc2n1	?	?	.	.	-15.6%	?	-1.6%	.
O=C(CCCn1cnc([N+](=O)[O-])n1)Nc1ccc(Cl)cc1Cl	-6.2%	-17.7%	?	-4.5%	28.1%	-2.1%	-17.3%	8.7%
Cc1cc2c(cc1S(=O)(=O)Nc1ccc(OC(F)(F)F)cc1)OCC(=O)N2	11.2%[46.1 µM]	15.3%&27.6%	7.0%	-12.6%	-1.5%	.	4.0%	2.7%
CC(=O)C1=C(C)NC(SCC(=O)c2ccc(C)cc2)=C(C#N)C1c1ccco1 (stereo not given)	.	.	-51.4%	-15.2%	.	.	-16.8%	-29.1%
SMILES	Lassa entry inh	2A StopGo	NS1 inh	Cruzain Triton	RE007 growth inh	Marburg entry inh	SARS PLpro yeast	Cruzain inh noDet
CCc1ccc(C2C(C(=O)Nc3ccccc3OC)=C(C)Nc3c(C(=O)Nc4ccc(C)cc4)cnn32)cc1 (stereo not given)	-1.6%[46.1 µM]	-1.1%	.	-4.6%	.	.	.	?
CN(Cc1cc(Cl)cc(Cl)c1O)Cc1c(O)ccc2ccccc12	14.4%[46.1 µM]	-2.4%	-15.5%	0.8%	?	-8.7%[46.1 µM]	.	-2.5%
CCC(C)NC(=O)Cn1nc(Cc2ccncc2)c2ccccc2c1=O (stereo not given)	7.8%[46.1 µM]	-1.3%	-0.8%	.	-16.9%	-1.3%[46.1 µM]	2.3%	.
Cc1cc2c(cc1C)NC(CC(=O)Nc1cccc(Cl)c1)C(=O)N2 (stereo not given)	4.6%[46.1 µM]	0.3%	.	-5.9%	.	.	.	-7.6%
Cc1ccc(C)c(C(=O)COC(=O)c2ccccc2N2C(=O)C3C4CCC(C4)C3C2=O)c1 (stereo not given)	2.1%	0.0%	11.8%	3.6%	-18.1%	-0.6%	-4.3%	-8.8%
O=C1CCCc2ccccc2N1Cc1ccc(Cl)cc1	18.0%	?	-9.4%	-5.5%	-14.2%	-28.2%	1.5%	-9.9%
CCCOc1ccc(S(=O)(=O)N2CCCC2)cc1[N+](=O)[O-]	.	-13.3%	?	.	-0.6%	.	1.3%	.
COc1c(Cl)cc(C(=O)Nc2ccccc2C(=O)O)cc1Cl	?	.	-44.4%	-7.5%	4.2%	?	-7.8%	-21.1%
